From PubChem BioAssay
Cruzain inh Det: qHTS Assay for Promiscuous and Specific Inhibitors of Cruzain (with detergent). 0.43% of 200,000 active. purified cruzain, Z-FR-AMC fluorescence, 0.01% Triton. Cruzipain (Trypanosoma cruzi), P25779. Potency, µM, without a hit: max response, negative = inhibition, actives largely listed as inhibitors; active = well fitted curve in the direction sought with a large enough effect; inconclusive = small, poorly fitted or top-dose-only effect, or another doubt; inactive = no such curve, though single readings can be large; an effect the other way counts as inactive or inconclusive;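 also: plate controls were neutral wells for no effect and buffer without enzyme for full effect; nearly all actives have a fitted effect of over 40% in size; top concentration of the series not given in the record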
Target sequence (P25779 123-467 limits assumed): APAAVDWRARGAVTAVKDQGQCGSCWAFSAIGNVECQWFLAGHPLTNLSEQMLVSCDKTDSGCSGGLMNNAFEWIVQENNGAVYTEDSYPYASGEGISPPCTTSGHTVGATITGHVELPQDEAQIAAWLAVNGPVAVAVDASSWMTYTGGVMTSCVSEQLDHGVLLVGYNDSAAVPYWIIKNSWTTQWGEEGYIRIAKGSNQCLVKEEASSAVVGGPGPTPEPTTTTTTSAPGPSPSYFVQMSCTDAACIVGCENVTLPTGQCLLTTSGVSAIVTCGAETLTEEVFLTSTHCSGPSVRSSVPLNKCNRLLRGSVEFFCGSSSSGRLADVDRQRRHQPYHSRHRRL
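Compounds were screened in titration against cruzain (1.5 nM) with 0.01% Triton X-100 to counter colloidal aggregation. Activity was the AMC fluorescence increase over 60 s after adding 2 uM Z-FR-AMC at pH 5.5.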
SARS PLP yeast: qHTS of Yeast-based Assay for SARS-CoV PLP; S. cerevisiae expressing SARS-CoV PLpro, growth rescue; control for the full effect not named in the record; Potency, µM (titrated, usually from 32.9 µM), for inactives: at the highest dose activity, positive = growth rescue; 0.19% of 330,000 active; AID 485353, 2010; also: 0% is about no effect; nearly all actives have a fitted effect of over 55% in size; growth read by luminescence after 48 h
Lassa entry inh: qHTS for Inhibitors of binding or entry into cells for Lassa Virus. Lassa virus pseudotype entry inhibition, cell reporter; control for the full effect not named in the record. Potency, µM (series often up to 37.9 µM), without a hit: at the top dose activity change, negative = inhibition, actives largely listed as inhibitors. 1.2% of 300,000 active; active means well fitted inhibition curve with a large enough effect; inconclusive means small, poorly fitted or top-dose-only effect, or effect the other way; inactive means flat fitted curve, though single readings scatter; tested in HEK293 cells; also: % is scaled to controls: 0 for no effect and ±100 for the full control effect; nearly all actives have a fitted effect of over 50% in size; luciferase read-out
RE007 growth inh: qHTS Assay for Inhibitors of the HIV-1 protein Vpr. AID 651644, 2012. S. pombe RE007 Vpr strain, BacTiter-Glo ATP luminescence, 24 h; control for the full effect not named in the record. 0.21% of 360,000 active. Potency, µM (titrated, usually from 92.2 µM), without a hit: at the highest dose activity change, negative = less growth; active = well fitted falling curve with a large enough effect; inconclusive = small, poorly fitted or top-dose-only effect; inactive = no such curve, though single readings can be large or run the other way;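 also: % is scaled to controls: 0 for no effect and ±100 for the full control effect; nearly all actives have a fitted effect of over 50% in size; the assay follows cell death caused by Vpr and the record does not say whether a fall means rescue or toxicity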
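Fission yeast RE007 carrying one integrated HIV-1 vpr copy, seeded at OD 0.01 in PMG+AL medium with 23 nL pinned compound. Grown 24 h at 30 degrees; viability read by BacTiter-Glo luminescence after 5 min.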
Cruzain noTriton: qHTS Assay for Promiscuous and Specific Inhibitors of Cruzain (without detergent) | purified cruzain, Z-FR-AMC fluorescence, no detergent | Potency, µM, inactives show max response, negative = inhibition, actives largely listed as inhibitors | 2.3% of 200,000 active; active = well fitted curve in the direction sought with a large enough effect; inconclusive = small, poorly fitted or top-dose-only effect, or another doubt; inactive = no such curve, though single readings can be large; an effect the other way counts as inactive or inconclusive;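 also: plate controls were enzyme without inhibitor for no effect and buffer without enzyme for full effect; nearly all actives have a fitted effect of over 40% in size; top concentration of the series not given in the record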
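Detergent-free condition (0.00005% Triton X-100) in acetate buffer pH 5.5 with DTT. 1.5 nM enzyme and compound were pre-mixed 15 min, then 2 uM Z-FR-AMC substrate added; reaction progress from fluorescence change between first and third reads (60 s).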
NS1 function inh: qHTS Assay for Inhibitors of Influenza NS1 Protein Function. S. cerevisiae slowed by influenza A NS1, growth recovery by OD600. Potency, µM (highest dose often 46.1 µM), inactives show at the highest dose activity, positive = more growth. 0.4% of 270,000 active. AID 2326, 2010; also: actives are rising curves; nearly all actives have a fitted effect of over 50% in size
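S. cerevisiae expressing influenza A NS1, grown in glucose, washed, then diluted 1:100 into pH 6.0 -URA galactose medium with 23 nl compound. Growth recovery read as OD600; NS1-free strain serves as control.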
2A StopGo: High Throughput Screening for Foot and Mouth Disease Virus Antivirals; human cells with a luciferase reporter of 2A StopGo recoding; control for the full effect not named in the record; Potency, µM (titrated, usually from 57.9 µM), for the others: at the top dose signal change, negative = less light; 1.2% of 410,000 active; active = well fitted falling curve with a large enough effect; inconclusive = small, poorly fitted or top-dose-only effect; inactive = no such curve, though single readings can be large or run the other way; tested in HEK293T cells; also: % is scaled to controls: 0 for no effect and ±100 for the full control effect; nearly all actives have a fitted effect of over 45% in size; luciferase light after 4 h
MARV entry inh: qHTS for inhibitors of binding or entry into cells for Marburg Virus. Marburg virus pseudotyped entry inhibition, cell reporter; control for the full effect not named in the record; about a third of the inactives were read at about 46 µM. Potency, µM (doses to about 37.8 µM), for the others: top-dose activity change, negative = inhibition, actives largely listed as inhibitors. 1.8% of 300,000 active. AID 540276, 2011; active = well fitted inhibition curve with a large enough effect; inconclusive = small, poorly fitted or top-dose-only effect, or effect the other way; inactive = flat fitted curve, though single readings scatter; tested in HEK293 cells; about a fifth of its hits are not listed in these tables; also: % is scaled to controls: 0 for no effect and ±100 for the full control effect; luciferase read-out
An asterisk follows results filed as active; u = inconclusive; x = not tested or not shown; & = joins results of further samples; [ ] = another dose, or the depositor's remark. Unless noted, calls follow the shape of the dose curve; as a rule, active means well fitted rising curve with a large enough effect; inconclusive means small, poorly fitted or top-dose-only effect; inactive means no such curve, though single readings can be large or run the other way. Potency is read from the fitted curve at half-maximal effect.

SMILES	Cruzain inh Det	SARS PLP yeast	Lassa entry inh	RE007 growth inh	Cruzain noTriton	NS1 function inh	2A StopGo	MARV entry inh
O=C(COC(=O)C1=COCCO1)Nc1cccc(S(=O)(=O)N2CCOCC2)c1	x	-5%	0%	-9%	x	-25%	5%	19%
O=C(NCc1cccc(CNC(=O)Nc2cccc(O)c2)c1)Nc1cccc(O)c1	x	1%	x	-14%	x	-1%	-6%	x
COc1cc(C(=O)N(Cc2ccc(F)cc2)C2CCS(=O)(=O)C2)cc(OC)c1OC (stereo not given)	1.5%	5%	2%	27%	9%	-10%	11%	6%
Cc1cc(C(=O)CSc2nncs2)c(C)n1-c1c(C)n(C)n(-c2ccccc2)c1=O	-1.7%	-1%	12%	6%	-10%	-7%	x	18%
COc1ccc(C(=O)CSc2nnc(-c3ccc(C)cc3)o2)cc1	4.0%	-6%	-10%	-23%	-4%	3%	3%	-15%
CCOc1ccc(OCCCCn2ccnc2)cc1	3.6%	-1%	7%	-8%	-1%	3%	-8%	16%
C=CCNc1nc(-c2ccc(O)c(C(N)=O)c2)cs1	-4.5%	2%	2%	-18%	6%	-3%	16%	-6%&-6%
COc1ccc(CCNC(=O)Cn2ccc3cc(S(=O)(=O)N4CCCC4)ccc32)cc1OC	x	7%	x	6%	x	2.5µM*	-12%	x
Cc1cccc(Cc2ccc(Cl)nn2)c1	x	3%	-1%	0%	x	x	5%	-3%[46.1 µM]
N#CCCN(Cc1ccccc1)C(=O)c1nccnc1C(=O)O	x	1%	x	0%	x	4%	-3%	x
CC(C)Oc1cccc(C2CC(=O)Nc3cc4c(cc32)OCO4)c1 (stereo not given)	-8.7%	x	u	x	-5%	x	u	u
Cc1c(Cl)c([N+](=O)[O-])nn1CCCC(=O)Nc1cccc(Cl)c1Cl	-3.0%	7%	-6%	11%	-11%	-9%	-20%	-3%
COc1ccc(C(=O)N2CCC(n3nccc3NC(=O)C3CC3)CC2)cc1F	x	10%	x	9%	x	17%	3%	x
COCc1cc(C)nc(OCC(=O)N/N=C/c2ccc(O)cc2)c1C#N	-4.7%	12%	u	5%	0%	5%	-21%	-5%
CCn1cc(C(=O)NCC2CCCO2)c(=O)c2cc(S(=O)(=O)N(C)C)ccc21 (stereo not given)	-3.8%	9%	x	7%	-9%	4%	-5%	x
COc1cc(/C=N/NC(=O)c2ccc(F)cc2)ccc1OC(=O)c1ccco1	-5.7%	9%	u	-8%	10%	-26%	8%	12%
O=C(NCc1ccccc1)N1CCC(CO)(Cc2cccc(F)c2)CC1	x	-1%	x	6%	x	-4%	-16%	x
O=C(c1ccc(F)cc1F)N1CCC(N2CCC(C(=O)N3CCOCC3)CC2)CC1	x	-2%	x	-8%	x	0%	-2%	x
CCC(C)(C(=O)NC1CCCC1)N(C(=O)CC1NC(=O)NC1=O)c1c(C)n(C)n(-c2ccccc2)c1=O (stereo not given)	x	-4%	12%	21%	x	x	13%	23%[46.1 µM]
COc1ccc(NS(=O)(=O)c2cc(C)ccc2C)cc1	-4.1%	-1%	-22%	-11%	-1%	-12%	70%[activator]	u
Cn1cccc1Cc1nnc(SCC(=O)NCC2CCCO2)n1CCc1ccccc1 (stereo not given)	1.8%	-1%	36%[14.3 µM]	-15%	2%	2%	22%	0%
Cc1ccc(C)n1CCN1CCN(S(=O)(=O)c2ccc(F)cc2F)CC1	x	1%	15%[46.1 µM]	6%	x	1%	0%	0%[46.1 µM]
Cc1ccc2[nH]c(=O)c(CN(CCCN3CCOCC3)C(=O)Nc3cccc(Cl)c3)cc2c1	-6.6%	-18%	-3%&-7%	-7%	4%	-11%	-1%	u
COc1ccccc1C(=O)N(Cc1ccccc1)c1ccc(C)cc1	x	-7%	-27%[46.1 µM]	3%	x	-12%	1%	u
Cc1ccc2oc(C(=O)Nc3c(C(=O)Nc4cccc(Cl)c4)oc4ccccc34)cc(=O)c2c1	-1.7%	x	1%[46.1 µM]	x	0%	x	-4%	-1%[46.1 µM]
O=C(O)c1cnnc2ccccc12	x	x	10%[46.1 µM]	15%	x	x	6%	-4%[46.1 µM]
CC(=O)N1c2ccccc2C(=O)C1N1CCN(c2ccc(F)cc2)CC1 (stereo not given)	-1.9%	x	3%[46.1 µM]	x	-16%	x	-25%	x
CCOC(=O)c1c(-c2ccccc2)oc2ccc(OCc3ccc(C)cc3)cc12	-1.1%	x	u	x	10%	x	0%	x
O=C(c1ccc(N2CCCC2)c([N+](=O)[O-])c1)N1CCN(c2ccccn2)CC1	x	-4%	-26%[46.1 µM]	-8%	x	x	-16%	-1%[46.1 µM]
CCN(CC)c1c([N+](=O)[O-])c(=O)oc2ccccc12	x	1%	8%	-16%	x	1%	3%	2%[46.1 µM]
CCNc1ccc(-c2nc(-c3ccco3)no2)cc1[N+](=O)[O-]	-1.4%	x	-13%[46.1 µM]	x	-15%	x	8%	-7%[46.1 µM]
O=C(c1ccc(Cl)c(Cl)c1)N1CCC(=O)N(C(COCc2ccc(Cl)cc2)Cc2ccccc2)CC1 (stereo not given)	-6.3%	-24%	u	-4%	-1%	18%	u	u
O=C(/C=C/c1cc([N+](=O)[O-])ccc1OC(F)F)Nc1cccc2ccccc12	-2.6%	20%	-5%	-9%	-15%	-4%	0%	12%
CC1CCN(C(=O)CCc2nnc(-c3ccccc3)o2)CC1	x	u	10%	-19%	x	1%	31%[activator]	6%[46.1 µM]
COc1ccccc1NC(=O)CN(C)S(=O)(=O)c1ccc(F)cc1	-1.1%	1%	0%	15%	-8%	-4%	-11%	10%[46.1 µM]
CCN(CC)c1ccc(/C=N/NC(=O)CN2CCCc3ccccc32)cc1	-5.9%	-12%	-25%	3%	-4%	16%	19%	-25%
CCn1c(=O)c2sccc2n(Cc2cc(C(=O)OC)ccc2OC)c1=O	x	1%	x	-3%	x	11%	-17%	x
COc1ccc(N2CCN(C(c3ccccc3F)c3sc4nc(-c5ccco5)nn4c3O)CC2)cc1 (stereo not given)	-8.1%	x	1%[46.1 µM]	x	19%	x	29%	x
Brc1ccc(-c2noc(-c3ccccc3)n2)o1	-2.6%	0%	23%[46.1 µM]	-15%	-3%	-7%	-8%&-2%	u
Cc1cccn2c(=O)c3cc(C(=O)NCCCN4CCOCC4)n(C)c3nc12	-2.7%	0%	x	x	-9%	-2%	x	x
COc1cc(C)c(Cl)cc1S(=O)(=O)n1cnc2ccccc21	4.2%	3%	2%	9%	14%	10%	37%[activator]	-23%
COc1ccc(C2CC(c3ccc(OC)cc3)n3nc(NC(=O)c4cccs4)nc3N2)cc1 (stereo not given)	3.3%	-1%	u	-12%	7%	21%	-10%	u
O=C(CSc1nc2ccccc2s1)N1CCCCC1	-2.9%	-17%	20%	0%	-6%	-8%	x	5%
c1cnc(Nc2nc(-c3ccc4ccccc4c3)cs2)nc1	5.4%	7%	5%	4%	4µM*	5%	x	u
COc1cccc(CNC(=O)C2=C(C)C(=O)OC23CCC(C)CC3)c1 (stereo not given)	4.2%	-1%	5%	-4%	1%	-48%	-2%	u
O=C(c1cccnc1)N1CCN(Cc2cccc(F)c2)CC1	-1.9%	-6%	0%	-12%	-17%	8%	-21%	-4%
CCc1nc2ccccc2c(C(=O)OCCN2C(=O)c3ccccc3C2=O)c1C	-1.9%	-7%	u	11%	u	-9%	u	17%
Cc1cccc(C)c1NC(=O)CNC(=O)c1ccccc1	x	1%	16%	0%	x	21%	15%	10%[46.1 µM]
Cn1cccc1/C=N/n1c(-c2ccco2)n[nH]c1=S	x	1%	x	1%	x	12%	-15%	x
CSc1cnc2c(=O)n(C)c(=O)[nH]c2n1	-10%	-8%	2%	25%	-10%	-10%	-18%	6%
O=C(COC(=O)COc1ccc(Cl)cc1)NCCNC(=O)COC(=O)COc1ccc(Cl)cc1	x	1%	1%	1%	x	x	-18%	2%[46.1 µM]
CC(C)(C)c1cc(Br)c(O)c(N=Nc2ccc(S(=O)(=O)N3CCOCC3)cc2)c1	x	-1%	-18%[46.1 µM]	6%	x	x	-12%	-26%[46.1 µM]
CCn1c(SCC(=O)Nc2cc(F)ccc2C)nnc1-c1ccccc1O	7.5%	-2%	2%	13%	-5%	-50%	u	-2%[46.1 µM]
CCn1c(-c2ccncc2)n[nH]c1=S	x	-2%	4%	8%	x	8%	3%	u
CCC(=O)N1CCc2cc(Br)c(S(=O)(=O)NCCN3CCCCC3CC)cc21 (stereo not given)	x	x	7%	2%	x	x	16%	1%
COc1cccc(NC(=O)CSc2nc3n[nH]c(C)c3c(=N)n2-c2cccc(OC)c2)c1	-0.3%	0%	-28%	-13%	u	10%	-19%	u
CC(C)(C)NC(=O)COC(=O)/C=C/c1ccc(F)cc1	-3.0%	u	-7%	-1%	19%	1%	35%[activator]	15%
COc1cc(OC)cc(C(=O)N2CCC(N3CCN(c4ccccc4OC)CC3)CC2)c1	-1.2%	1%	u	0%	0%	-3%	-16%	-42%
CCC(C)(NC(=O)c1cccc(N2C(=O)CSC2c2ccccc2)c1)C(=O)Nc1ccccc1C (stereo not given)	0.6%	15%	-35%	0%	11%	-8%	-9%	-19%
COc1ccc(/C=C(\C#N)C(=O)NCc2ccccc2)cc1O	x	-7%	4%	8%	x	-15%	38%[activator]	-2%[46.1 µM]

Continuation.
SMILES	Cruzain inh Det	SARS PLP yeast	Lassa entry inh	RE007 growth inh	Cruzain noTriton	NS1 function inh	2A StopGo	MARV entry inh
COc1ccc2c(c1)N(C(=O)CSc1n[nH]c(C)n1)C(C)(C)C=C2C	1.1%	9%	-1%	8%	5%	-2%	0%	-9%[46.1 µM]
Cc1ccc(-c2n[nH]c(=O)c3ccccc23)cc1S(=O)(=O)N(C)CCO	3.2%	-8%	5%	5%	-1%	2%	-26%	u
CCOc1cc(/C=N/NC(=O)Cn2nc([N+](=O)[O-])cc2C)ccc1OCc1ccc(F)cc1	1.0%	-4%	15%	-6%	1%	-5%	-15%	u
CC(Oc1ccc(Br)cc1)C(=O)O/N=C(\N)c1ccncc1 (stereo not given)	x	-7%	u	-12%	x	-98%	-27%	-8%
